LANA-H2A inh = blocks KSHV LANA binding to histone H2A/H2B. Q9QR71. cell-free LANA-H2A/H2B peptide, fluorescence polarization. inhibition, % (concentration not given with the values). 320,000 tested, 0.6% active; in the data active = inhibition mostly above about 10%, no sharp cut-off; inactive = mostly below about 6.7%;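 note: stock transfer was 7.5 nL into about 10 µL; 0% = median of vehicle wells and 100% = median of positive control wells; one replicate is shown; the record names a cut of 25% in any replicate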
HNF4A DNA FP = change in binding of human HNF4 alpha to DNA; P41235; HNF4a-FITC DNA binding, fluorescence polarization, 1 h; activity change, % at 10 µM; 360,000 tested, 0.3% active; AID 1224865; in the data active = activity change above about 30%, passing the limit was not always enough;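 note: controls were the assay level and a saturating level of protein; the project sought stronger binding though the title names inhibitors; some compounds called inactive have numbers as strong as hits; positive values seem to mean higher polarization but the record does not say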
Target sequence (P41235 whole entry, looked up): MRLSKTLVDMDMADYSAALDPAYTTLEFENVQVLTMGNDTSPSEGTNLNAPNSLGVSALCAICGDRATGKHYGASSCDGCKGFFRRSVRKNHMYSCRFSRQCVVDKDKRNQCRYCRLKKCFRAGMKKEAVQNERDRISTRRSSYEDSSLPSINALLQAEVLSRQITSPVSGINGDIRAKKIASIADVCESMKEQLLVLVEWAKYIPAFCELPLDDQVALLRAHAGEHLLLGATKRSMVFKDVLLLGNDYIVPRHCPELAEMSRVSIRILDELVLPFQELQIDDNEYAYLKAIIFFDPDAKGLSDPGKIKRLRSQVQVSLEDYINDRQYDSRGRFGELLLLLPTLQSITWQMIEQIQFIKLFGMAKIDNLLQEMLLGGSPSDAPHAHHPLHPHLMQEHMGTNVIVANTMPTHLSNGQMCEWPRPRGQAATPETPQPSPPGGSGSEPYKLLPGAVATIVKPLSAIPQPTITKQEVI
Beta2AR agonist = human beta-2 adrenergic receptor agonism by FAP; P07550; Am2.2-beta2AR cells, FAP receptor internalization, flow cytometry; reference of the scale not given here; response, % (no concentration beside the values); 340,000 tested, 0.43% active;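 active = response above a set limit, near 3 SD of response in nonfluorescent compounds, cut at about 42% in these data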;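 note: stock transfer was 100 nL into about 11 µL; a reference agonist was the positive control; negative values mostly stem from fluorescent compounds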
Target sequence (P07550 whole entry, looked up): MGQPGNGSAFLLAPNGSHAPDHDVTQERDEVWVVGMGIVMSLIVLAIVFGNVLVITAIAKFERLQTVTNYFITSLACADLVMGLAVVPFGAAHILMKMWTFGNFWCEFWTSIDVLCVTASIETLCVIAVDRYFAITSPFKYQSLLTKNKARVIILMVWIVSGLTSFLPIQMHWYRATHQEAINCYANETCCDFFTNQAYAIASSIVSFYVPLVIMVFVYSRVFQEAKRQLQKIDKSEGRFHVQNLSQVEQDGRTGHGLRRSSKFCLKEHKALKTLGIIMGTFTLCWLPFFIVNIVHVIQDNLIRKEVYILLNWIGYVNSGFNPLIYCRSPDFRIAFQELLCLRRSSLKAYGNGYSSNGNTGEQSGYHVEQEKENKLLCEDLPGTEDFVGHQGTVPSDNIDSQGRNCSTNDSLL
A1 inh = inhibitors of the anti-apoptotic protein A1, read as caspase activation; 330,000 tested, 0.066% active; MEF A1-2A-BIM cells, Caspase-Glo 3/7 luminescence, 3 h; percent of clofoctol response, vehicle zero; caspase activation, % (no concentration beside the values); AID 2462;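 active = over half of replicate activation scores above 10%, or exactly half above 10 with the replicate mean above 10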;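 note: wells of about 30 µL received 50 nL stock; many hits fall short of the cut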
Vif A3G = inhibitors of Vif binding to APOBEC3G peptide, primary screen, biochemical, TR-FRET, GST-Vif 1-94, biotin-A3G peptide, dose response retest (AID 1117319). TR-FRET GST-Vif / biotin-A3G peptide binding; higher % means a stronger effect; test concentration not given here; strong numbers were not always called active. one-dose inhibition, %; IC50 in µM for titrated hits. 260,000 tested, 0.57% active;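 active = above the screen mean plus three standard deviations and confirmed in dose response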;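 note: Vif residues 1-94 fused to GST binding biotinylated APOBEC3G peptide 110-148; 0% = full assay without inhibitor and 100% = GST in place of GST-Vif; retest series ran down from 100 µM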
E coli growth = inhibitors of Escherichia coli growth; OD600, 23 h; active compounds read low; OD600 absorbance (concentration not given with the values); 330,000 tested, 0.21% active;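 active = OD600 absorbance below the run mean of sample wells minus 3.6 SD, in any replicate, cut at about 0.56 in these data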;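 note: stock transfer was 300 nL into about 60 µL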
UCH37 DUB inh = inhibitors of human deubiquitinating enzyme UCH37. Q9Y5K5. purified proteasome/UCH37, Ub-AMC cleavage fluorescence. inhibition, % (no concentration beside the values). 330,000 tested, 0.33% active. AID 588478;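 active = mean of two replicates above 20%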;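 note: 0% = compound-free wells with enzyme and 100% = wells lacking proteasome; stock transfer was 100 nL into about 20 µL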
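Assay system: Proteasome-bound UCH37. Buffer or medium: pH 7.4 Tris-HCl (50 mM) with ovalbumin, ATP-MgCl2, DTT. Incubation: 30 min preincubation with enzyme, 25 min cleavage at room temperature. Measured by: fluorescence, ex 355 nm, em 460 nm. Read-out basis: percent inhibition. Control set: wells without proteasome as full block, compound-free enzyme plus substrate as uninhibited.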
Starred values were filed as active, the others as inactive.

O=C(COc1ccccc1)NCC(=O)NC1=NCCS1 was read as LANA-H2A inh -6.3, HNF4A DNA FP -0.5, Beta2AR agonist -7, A1 inh 0.1, Vif A3G 1%, E coli growth 0.76 and UCH37 DUB inh -3.1.
`CCCC1CC(C)(C(=O)CSc2n[nH]c(-c3ccccc3)n2)OC1=O` (stereo not given) gave LANA-H2A inh -1.6, HNF4A DNA FP 0.6, Beta2AR agonist -2, A1 inh 1.2, Vif A3G 21%, E coli growth 0.68 and UCH37 DUB inh 2.7.
For O=c1[nH]c(CCl)nc2cc(-c3ccc(F)cc3)sc12 the results were LANA-H2A inh -0.9, HNF4A DNA FP -0.5, Beta2AR agonist -3 and A1 inh -7.0.
For CCc1ccc2c(CC(=O)Nc3nnc(C4CC4)s3)coc2c1 the results were LANA-H2A inh -2.2, HNF4A DNA FP 6.1, Beta2AR agonist 0, A1 inh -0.6, Vif A3G -4%, E coli growth 0.75 and UCH37 DUB inh 0.9.
For CC(=O)C1=C(C)OC(N)=C(C#N)C1c1cc([N+](=O)[O-])ccc1Cl (stereo not given) the results were LANA-H2A inh -5.5, HNF4A DNA FP 1.1, Beta2AR agonist -1, A1 inh 1.3, E coli growth 0.66 and UCH37 DUB inh 0.5.
O=C1CNC(=O)/C1=C/c1ccc(Br)cc1 was read as LANA-H2A inh 0.5, HNF4A DNA FP -1.6, Beta2AR agonist 2, A1 inh -0.3, Vif A3G 73%, E coli growth 0.7 and UCH37 DUB inh 3.9.
COc1cc(NC(=O)c2ccnnc2)cc(C(=O)Nc2cccc(C(F)(F)F)c2)c1 was read as LANA-H2A inh 2.0, HNF4A DNA FP 4.2, Beta2AR agonist -3, A1 inh -0.2, E coli growth 0.7 and UCH37 DUB inh 0.6.
For O=C(Nc1ccc(F)cc1)C(c1ccccc1)N1CCN(S(=O)(=O)c2ccccc2)CC1 (stereo not given) the results were LANA-H2A inh -0.4, HNF4A DNA FP 2.7, Beta2AR agonist 6, A1 inh -0.1, E coli growth 0.73 and UCH37 DUB inh 1.6.
Screening Cc1nc2c(-c3ccccc3)cnn2c(N2CCOCC2)c1C returned LANA-H2A inh -6.3, HNF4A DNA FP 1.6, Beta2AR agonist -9, A1 inh -0.5, Vif A3G -7%, E coli growth 0.65 and UCH37 DUB inh -11.
For COC(=O)CCC(=O)N1CCCC(CO)(Cc2ccccc2F)C1 (stereo not given) the results were LANA-H2A inh 1.7, HNF4A DNA FP 0.6, Beta2AR agonist 9, A1 inh -0.4, E coli growth 0.68 and UCH37 DUB inh 4.2.
`COCC(=O)N1CCN(c2cccc(Cl)c2)CC1` gave LANA-H2A inh 2.1, HNF4A DNA FP -3.3, Beta2AR agonist 5, A1 inh 0.7, Vif A3G -2%, E coli growth 0.68 and UCH37 DUB inh 4.1.
For COc1ccc(-c2ccc3c(c2)S(=O)(=O)c2cccc(C(=O)NC4CC4)c2C3=O)cc1OC the results were LANA-H2A inh -5.1, HNF4A DNA FP 22, Beta2AR agonist 0, A1 inh -0.5, E coli growth 0.71 and UCH37 DUB inh 4.5.

Three entries already listed, sorted by heavy-atom count, rising.
`COCC(=O)N1CCN(c2cccc(Cl)c2)CC1` gave LANA-H2A inh 2.1, HNF4A DNA FP -3.3, Beta2AR agonist 5, A1 inh 0.7, Vif A3G -2%, E coli growth 0.68 and UCH37 DUB inh 4.1.
For CCc1ccc2c(CC(=O)Nc3nnc(C4CC4)s3)coc2c1 the results were LANA-H2A inh -2.2, HNF4A DNA FP 6.1, Beta2AR agonist 0, A1 inh -0.6, Vif A3G -4%, E coli growth 0.75 and UCH37 DUB inh 0.9.
For COc1ccc(-c2ccc3c(c2)S(=O)(=O)c2cccc(C(=O)NC4CC4)c2C3=O)cc1OC the results were LANA-H2A inh -5.1, HNF4A DNA FP 22, Beta2AR agonist 0, A1 inh -0.5, E coli growth 0.71 and UCH37 DUB inh 4.5.

2 records drawn at random from the list so far:
For CCc1ccc2c(CC(=O)Nc3nnc(C4CC4)s3)coc2c1 the results were LANA-H2A inh -2.2, HNF4A DNA FP 6.1, Beta2AR agonist 0, A1 inh -0.6, Vif A3G -4%, E coli growth 0.75 and UCH37 DUB inh 0.9.
COc1cc(NC(=O)c2ccnnc2)cc(C(=O)Nc2cccc(C(F)(F)F)c2)c1 was read as LANA-H2A inh 2.0, HNF4A DNA FP 4.2, Beta2AR agonist -3, A1 inh -0.2, E coli growth 0.7 and UCH37 DUB inh 0.6.

Next records follow.
`CCOC(=O)CCSc1nc(-c2ccc3c(c2)OCO3)cc(C(F)(F)F)c1C#N` gave LANA-H2A inh -2.2, HNF4A DNA FP -1.8, Beta2AR agonist 15, A1 inh -0.4, Vif A3G -11%, E coli growth 0.7 and UCH37 DUB inh inactive.
Screening C[C@@H](CN1C2=NC[C@H](Cc3ccc(O)cc3)N2C[C@H]1Cc1ccc(O)cc1)NC(=O)CCC1CCCCC1 returned LANA-H2A inh 2.7, HNF4A DNA FP 10, Beta2AR agonist -7, A1 inh 0.7, Vif A3G 28% and UCH37 DUB inh 2.3.
For Cc1nc2ccccn2c1P(=Nc1ccccc1)(N(C)C)N(C)C the results were LANA-H2A inh 0.1, HNF4A DNA FP 3.2, Beta2AR agonist -12, A1 inh 0.0, Vif A3G 1%, E coli growth 0.68 and UCH37 DUB inh 5.8.
For CNC(=O)C1CC(=O)N(Cc2ccccc2)C(=Nc2ccc(OC)cc2)S1 (stereo not given) the results were LANA-H2A inh -5.5, HNF4A DNA FP 0.8, Beta2AR agonist -2, A1 inh 0.3, Vif A3G -5%, E coli growth 0.73 and UCH37 DUB inh 3.1.
`CCc1[nH]nc(C(=O)N2CCCC(CCC(=O)N3CCN(c4ccccn4)CC3)C2)c1C` (stereo not given) gave LANA-H2A inh 0.6, HNF4A DNA FP 1.9, Beta2AR agonist -7, A1 inh -0.6, Vif A3G 1%, E coli growth 0.7 and UCH37 DUB inh 0.0.
`CNc1c(NS(=O)(=O)c2cc(NC(C)=O)ccc2C)c(=O)oc2ccccc12` gave LANA-H2A inh 1.4, HNF4A DNA FP 2.7, Beta2AR agonist -18, A1 inh -0.1, E coli growth 0.69 and UCH37 DUB inh 4.2.
Screening CC(=O)N1CCN(C(=O)CCN(c2ccccc2)S(=O)(=O)c2ccc(C)cc2)CC1 returned LANA-H2A inh 1.1, HNF4A DNA FP 0.7, Beta2AR agonist -4, A1 inh 0.5, Vif A3G 2%, E coli growth 0.64 and UCH37 DUB inh 4.6.
For CC(C)(C)C(=O)NC(=S)Nc1cccc(C(=O)O)c1 the results were LANA-H2A inh 5.0, HNF4A DNA FP -1.2, Beta2AR agonist 1, A1 inh 0.1, Vif A3G -9%, E coli growth 0.69 and UCH37 DUB inh 0.9.
O=C(CCCC(=O)NCC1CCCO1)NCC1CCCO1 (stereo not given) was read as LANA-H2A inh -1.1, HNF4A DNA FP -0.3, Beta2AR agonist -3, A1 inh 1.1, Vif A3G 11%, E coli growth 0.71 and UCH37 DUB inh 3.7.
Cc1ccc(S(=O)(=O)N(CC(=O)c2ccccc2)C(=O)N2CCN(C)CC2)cc1 was read as HNF4A DNA FP -0.9, Beta2AR agonist -7, Vif A3G -5%, E coli growth 0.63 and UCH37 DUB inh 1.1.
`C[C@H]1CCC[C@]2(C)C[C@H]3OC(=O)C(CN4CCCCCC4)[C@H]3C=C12` (stereo not given in full) gave LANA-H2A inh -0.7, HNF4A DNA FP 2.9, Beta2AR agonist 2, A1 inh -0.2, Vif A3G -2%, E coli growth 0.68 and UCH37 DUB inh 1.9.
For O=C(CSc1c[nH]c2ccccc12)NC1CCCC1 the results were LANA-H2A inh 4.8, HNF4A DNA FP 2.3, Beta2AR agonist -10, A1 inh 0.0, E coli growth 0.72 and UCH37 DUB inh 5.8.
Screening Cc1ccc(S(=O)(=O)NC(=O)NCC2CCN(S(=O)(=O)c3ccccc3)CC2)cc1 returned LANA-H2A inh -2.2, HNF4A DNA FP -1.9, Beta2AR agonist -5, A1 inh 0.9, E coli growth 0.68 and UCH37 DUB inh 1.5.
For O=C(Nc1cccc(O)c1)c1cnn2cccnc12 the results were LANA-H2A inh 3.0, HNF4A DNA FP 3.5, Beta2AR agonist -10, A1 inh -4.9, Vif A3G 8%, E coli growth 0.71 and UCH37 DUB inh 8.1.
Cn1c(/C=C/c2cccc(Br)c2)nc2ccccc2c1=O was read as LANA-H2A inh -1.1, HNF4A DNA FP -2.0, Beta2AR agonist -10, A1 inh -0.3, Vif A3G 4%, E coli growth 0.69 and UCH37 DUB inh -33.
Screening CCN(CC)CCSc1nnc2c3cc(C)ccc3n(Cc3ccccc3)c2n1 returned LANA-H2A inh 4.6, HNF4A DNA FP 1.5, Beta2AR agonist 4, A1 inh 0.3, Vif A3G 20%, E coli growth 0.69 and UCH37 DUB inh 6.3.
For CC(=O)N(C)c1ccc(NC(=O)C(F)(F)F)cc1 the results were LANA-H2A inh 5.1, HNF4A DNA FP 2.3, Beta2AR agonist 1, A1 inh 0.0, Vif A3G 4%, E coli growth 0.61 and UCH37 DUB inh 0.9.
For CCn1c(COc2ccccc2)nnc1SCC(=O)NCc1ccco1 the results were LANA-H2A inh 9.8, HNF4A DNA FP -0.8, Beta2AR agonist 5, A1 inh 0.8, Vif A3G 5%, E coli growth 0.67 and UCH37 DUB inh 1.4.
`CCOC(=O)C1=C(N)Oc2cc(O)ccc2C1c1cccc([N+](=O)[O-])c1` (stereo not given) gave LANA-H2A inh -13, HNF4A DNA FP -1.8, Beta2AR agonist -6, A1 inh 0.1 and Vif A3G -6%.
For CCOC(=O)c1cn(CC)c2cc(F)c(F)cc2c1=O the results were LANA-H2A inh -5.3, HNF4A DNA FP -1.0, Beta2AR agonist 2, A1 inh 0.1, E coli growth 0.63 and UCH37 DUB inh 3.4.
`COc1ccc(OC)c(NC(=O)CSc2nnc(NC(=O)c3ccco3)s2)c1` gave LANA-H2A inh -2.7, HNF4A DNA FP 0.0, Beta2AR agonist 0, A1 inh -0.2, E coli growth 0.7 and UCH37 DUB inh 4.5.
O=C(Nc1ccc(OC(F)(F)F)cc1)NC1CCC(Oc2ccc(C(=O)O)cc2)CC1 (stereo not given) was read as LANA-H2A inh -1.4, HNF4A DNA FP 1.1, Beta2AR agonist -5, A1 inh 0.5, E coli growth 0.69 and UCH37 DUB inh 5.5.
`CCOC(=O)c1nn(-c2ccc3c(c2)OCCO3)cc1O` gave LANA-H2A inh 0.5, HNF4A DNA FP 3.1, Beta2AR agonist 4, A1 inh -3.6, Vif A3G 1%, E coli growth 0.67 and UCH37 DUB inh -34.
CCCCn1c(=N)c(S(=O)(=O)c2ccc(Br)cc2)cc2c(=O)n3cccc(C)c3nc21 was read as LANA-H2A inh -2.3, HNF4A DNA FP 5.0, Beta2AR agonist -4, A1 inh -0.4, Vif A3G -13%, E coli growth 0.65 and UCH37 DUB inh -14.
`Cc1ccc(N2CC(C(=O)OCC(=O)c3ccc(F)cc3)CC2=O)cc1` (stereo not given) gave LANA-H2A inh 0.5, HNF4A DNA FP 1.5, Beta2AR agonist -4, A1 inh 0.6, E coli growth 0.68 and UCH37 DUB inh 1.4.
For CCOC(=O)c1c(C)n(C)c2c(C)cc(O)c(OC(=O)CC)c12 the results were LANA-H2A inh -2.6, HNF4A DNA FP 1.7, Beta2AR agonist 1, A1 inh 0.4, Vif A3G 1%, E coli growth 0.78 and UCH37 DUB inh 4.2.
Screening C=C(C)CSc1nnc(-c2ccc(OC)c(OC)c2)n1N returned LANA-H2A inh 4.0, HNF4A DNA FP -4.3, Beta2AR agonist 8, A1 inh 0.7, Vif A3G 5%, E coli growth 0.62 and UCH37 DUB inh -1.0.

Compound activity: PubChem, several laboratories
